# HKDC1 inhibitor: HKDC1 hexokinase inhibitors, primary screen, biochemical, fluorescence, uHTS | recombinant HKDC1, G6PDH/diaphorase resazurin coupled fluorescence | 340,000 tested, 0.16% active | AID 493160, 2011 | inhibition, % at 20 µM;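 active = inhibition above about 35% when tested at 20 µM, limit read from the data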;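 note: plate controls were DMSO wells with enzyme for no effect and DMSO wells lacking enzyme for full effect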
# Target sequence (Q2TB90 whole entry, looked up): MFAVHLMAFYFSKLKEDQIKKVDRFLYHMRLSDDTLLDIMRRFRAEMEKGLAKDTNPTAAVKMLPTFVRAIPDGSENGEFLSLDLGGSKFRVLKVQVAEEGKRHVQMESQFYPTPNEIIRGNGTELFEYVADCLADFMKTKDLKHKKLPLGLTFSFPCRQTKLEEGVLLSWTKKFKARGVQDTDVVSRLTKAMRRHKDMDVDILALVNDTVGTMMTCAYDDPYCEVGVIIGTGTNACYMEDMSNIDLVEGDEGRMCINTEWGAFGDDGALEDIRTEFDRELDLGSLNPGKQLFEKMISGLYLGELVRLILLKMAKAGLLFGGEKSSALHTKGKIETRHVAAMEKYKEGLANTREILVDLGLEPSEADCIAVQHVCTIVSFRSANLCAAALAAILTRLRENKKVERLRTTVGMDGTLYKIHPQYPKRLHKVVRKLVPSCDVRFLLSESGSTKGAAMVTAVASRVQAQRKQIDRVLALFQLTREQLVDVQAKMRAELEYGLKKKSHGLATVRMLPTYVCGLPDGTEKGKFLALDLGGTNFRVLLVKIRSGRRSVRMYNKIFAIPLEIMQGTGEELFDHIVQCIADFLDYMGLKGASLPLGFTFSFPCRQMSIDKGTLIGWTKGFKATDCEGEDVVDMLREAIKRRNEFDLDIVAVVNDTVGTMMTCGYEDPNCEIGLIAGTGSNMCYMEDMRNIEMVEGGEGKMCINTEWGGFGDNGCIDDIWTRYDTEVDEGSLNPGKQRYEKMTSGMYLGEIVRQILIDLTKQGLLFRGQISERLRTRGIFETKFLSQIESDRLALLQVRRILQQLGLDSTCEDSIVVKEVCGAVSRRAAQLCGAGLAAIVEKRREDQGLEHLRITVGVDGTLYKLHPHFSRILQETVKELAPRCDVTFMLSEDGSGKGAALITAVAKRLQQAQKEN
#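 Material: recombinant HKDC1 hexokinase; Amount: HKDC1 at 5 µg/mL; Medium: Tris pH 8.0 buffer with MgCl2, Tween-20, BSA, BME; Schedule: 90 min reaction incubation at room temperature, dark; Technique: coupled resazurin fluorescence, excitation 525 nm, emission 613 nm.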
# UBC13 polyUb: UBC13 polyubiquitin chain formation inhibitors, primary screen, biochemical, TR-FRET, uHTS; AID 485273, 2010; 330,000 tested, 0.47% active; inhibition, % at 20 µM; in the data active = inhibition above about 45%, passing the limit was not always enough
# SENP7 block: SENP7 protease inhibitors, primary screen, biochemical, luminescence, uHTS | recombinant SENP7, Z-RLRGG-aminoluciferin luminescence, 40 min | inhibition, % at 5 µM | 330,000 tested, 1.5% active | AID 434973, 2010;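 active = inhibition above about 50% at the single test dose, limit read from the data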;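 note: plate controls were DMSO with enzyme for no effect and no enzyme buffer wells for full effect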
# SENP8 inh: SENP8 protease inhibitors, primary screen, biochemical, luminescence; purified SENP8, Z-RLRGG-aminoluciferin cleavage; inhibition, % at 10 µM; 330,000 tested, 1.2% active; AID 2540, 2010; in the data active = inhibition above about 50%
# Numbers without * were called inactive; · = not tested or not shown; & = joins results of further samples.
SMILES,HKDC1 inhibitor,UBC13 polyUb,SENP7 block,SENP8 inh
CCCCOC(=O)NC1CCc2cc(OC)c(OC)c(OC)c2-c2ccc(SC)c(=O)cc21 (stereo not given),2.6,·,·,·
Cc1ccccc1C(=O)N/N=C/c1ccc(Sc2ccccn2)o1,-0.8,-17.3,-7.6,-18.6
CCOC(=O)c1c(C)oc2ccc(O)cc12,1.2,24.9,-8.0,-5.6
COc1cccc2c1C(=O)c1c(O)c3c(c(O)c1C2=O)CC(O)(C(C)=O)CC3OC1CC(N(C)C)C(O)C(C)O1 (stereo not given),15.3,·,·,·
CC(C)(C)NC(=O)[C@@H]1C[C@@H]2CCCC[C@@H]2CN1C[C@@H](O)[C@H](Cc1ccccc1)NC(=O)[C@H](CC(N)=O)NC(=O)c1ccc2ccccc2n1,-1.7&-2.4,16.1,1.4,-5.4
COc1ccccc1C(=O)NNC(=S)NC(=O)c1ccco1,-12.2,-12.1,-5.3,-0.3
Cc1cc(NS(=O)(=O)c2ccc(N)cc2)no1,-7.3,-13.5,-6.0,0.3
Nc1ccn([C@@H]2O[C@H](CO)[C@@H](O)[C@@H]2O)c(=O)n1,-3.2,·,·,·
O=C(/C=C/c1ccc(O)c(O)c1)O[C@@H]1C[C@](O)(C(=O)O)C[C@@H](O)[C@H]1O,-1.1&-5.2,2.1,2.8,0.5
COc1cccc(C(=O)Nc2cc3c(cc2N2CCCC2)n(C)c(=O)n3C)c1,1.7,6.5,4.2,-5.7

# Arranged by the number under HKDC1 inhibitor (ascending): 3 of the compounds above.
SMILES,HKDC1 inhibitor,UBC13 polyUb,SENP7 block,SENP8 inh
Nc1ccn([C@@H]2O[C@H](CO)[C@@H](O)[C@@H]2O)c(=O)n1,-3.2,·,·,·
COc1cccc(C(=O)Nc2cc3c(cc2N2CCCC2)n(C)c(=O)n3C)c1,1.7,6.5,4.2,-5.7
CCCCOC(=O)NC1CCc2cc(OC)c(OC)c(OC)c2-c2ccc(SC)c(=O)cc21 (stereo not given),2.6,·,·,·

# Quoted at random: two records from the list
SMILES,HKDC1 inhibitor,UBC13 polyUb,SENP7 block,SENP8 inh
COc1cccc(C(=O)Nc2cc3c(cc2N2CCCC2)n(C)c(=O)n3C)c1,1.7,6.5,4.2,-5.7
Cc1cc(NS(=O)(=O)c2ccc(N)cc2)no1,-7.3,-13.5,-6.0,0.3

# New compounds follow
SMILES,HKDC1 inhibitor,UBC13 polyUb,SENP7 block,SENP8 inh
CC(C)(C)c1ccc(-n2ncc3c2CCCC3NC(=O)CCN2CCCC2=O)cc1 (stereo not given),-4.9,-3.4,-6.4,1.3
COc1ccc2c(c1)c(CC(=O)O)c(C)n2C(=O)c1ccc(Cl)cc1,-7.0,0.3,7.5,9.1
CC(=O)Oc1c(C)c(C)c2c(c1C)CCC(C)(CCCC(C)CCCC(C)CCCC(C)C)O2 (stereo not given),-3.8,1.6,-5.2,16.6
COc1cccc(N2CCN(CC(=O)Nc3ccc(-n4cnnn4)cc3)CC2)c1,-6.0,-4.5,-1.7,3.2
Cc1nn(-c2ccccc2)c(Cl)c1/C=N/NC(=O)c1ccncc1,1.1,2.0,-10.2,-12.5
CS(=O)(=O)c1ccc([C@@H](O)[C@@H](CF)NC(=O)C(Cl)Cl)cc1,-4.0,-7.1,-3.2,-8.5
COc1c2occc2cc2ccc(=O)oc12,-0.5,5.7,0.9,-5.3
CC(C)(C(=O)O)c1ccc([C@H](O)CCCN2CCC(C(O)(c3ccccc3)c3ccccc3)CC2)cc1,-9.6,-29.0,-4.8,-8.5
CCCCC(CC)C(=O)O (stereo not given),-2.8,6.3,3.8,9.8
CCCC(CCC)C(=O)O,-8.5&0.5,2.9,4.4,3.5

# Reformatted: results already given.
SMILES: COc1c2occc2cc2ccc(=O)oc12
  HKDC1 inhibitor: -0.5; UBC13 polyUb: 5.7; SENP7 block: 0.9; SENP8 inh: -5.3

SMILES: CC(C)(C)c1ccc(-n2ncc3c2CCCC3NC(=O)CCN2CCCC2=O)cc1 (stereo not given)
  HKDC1 inhibitor: -4.9; UBC13 polyUb: -3.4; SENP7 block: -6.4; SENP8 inh: 1.3

SMILES: CC(C)(C(=O)O)c1ccc([C@H](O)CCCN2CCC(C(O)(c3ccccc3)c3ccccc3)CC2)cc1
  HKDC1 inhibitor: -9.6; UBC13 polyUb: -29.0; SENP7 block: -4.8; SENP8 inh: -8.5

SMILES: CCCC(CCC)C(=O)O
  HKDC1 inhibitor: -8.5&0.5; UBC13 polyUb: 2.9; SENP7 block: 4.4; SENP8 inh: 3.5

# These rows are one share of the data. The share of hits here may be higher or lower than overall.
